# RecA intein inh – inhibitors of M. tuberculosis RecA intein splicing | 290,000 compounds, 0.75% hits | inhibition, %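 (about 9 µM by stock and volumes)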 | cell-free RecA intein splicing, fluorescence | P9WHJ3 | AID 2221; in the data active = inhibition above about 30%; inconclusive = no clear call, values can overlap the other calls;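 also: 0% = vehicle wells and 100% = reference inhibitor control wells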
# Target sequence (P9WHJ3 whole entry, looked up): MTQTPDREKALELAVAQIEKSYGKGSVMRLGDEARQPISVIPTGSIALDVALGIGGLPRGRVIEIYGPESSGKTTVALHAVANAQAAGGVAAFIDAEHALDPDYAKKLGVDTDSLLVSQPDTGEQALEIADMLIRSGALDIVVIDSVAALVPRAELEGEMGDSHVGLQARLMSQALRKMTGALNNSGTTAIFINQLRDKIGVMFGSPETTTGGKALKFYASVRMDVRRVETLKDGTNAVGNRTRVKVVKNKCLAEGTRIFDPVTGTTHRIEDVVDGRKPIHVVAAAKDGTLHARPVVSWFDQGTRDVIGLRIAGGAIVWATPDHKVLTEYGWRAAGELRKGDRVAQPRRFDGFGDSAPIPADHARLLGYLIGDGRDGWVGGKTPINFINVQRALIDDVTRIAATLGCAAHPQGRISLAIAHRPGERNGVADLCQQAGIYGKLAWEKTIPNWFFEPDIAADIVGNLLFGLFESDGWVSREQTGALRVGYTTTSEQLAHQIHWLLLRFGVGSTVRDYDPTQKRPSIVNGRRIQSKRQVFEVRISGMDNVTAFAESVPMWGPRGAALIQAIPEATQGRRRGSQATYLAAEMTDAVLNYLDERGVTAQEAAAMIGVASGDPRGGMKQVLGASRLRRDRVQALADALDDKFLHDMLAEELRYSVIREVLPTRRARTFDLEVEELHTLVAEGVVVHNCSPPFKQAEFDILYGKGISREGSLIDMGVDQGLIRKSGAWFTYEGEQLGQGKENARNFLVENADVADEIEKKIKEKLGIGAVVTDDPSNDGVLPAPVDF
# YopH inh – inhibitors of Yersinia enterocolitica YopH tyrosine phosphatase; inhibition, %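 (about 10 µM by stock and volumes)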; AID 898; fluorescence Ex485/Em525; 140,000 compounds, 0.16% hits;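 active = inhibition of 50% or more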;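 also: controls were vehicle for no effect and minimum signal wells for full effect; inactives centre near -20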
# Mtb H37Rv – M. tuberculosis H37Rv growth inhibitors, H37Rv strain (AID 1626); inhibition, % at 10 µM, or IC50 in µM where a hit was titrated; M. tuberculosis H37Rv growth inhibition; higher % means a stronger effect; 220,000 compounds, 0.95% hits;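 active = confirmed in a dose series; inconclusive = inhibition above 80% but not taken into the dose series; inactive = below 80% or under 30% at every dose of the series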;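 also: bacteria incubated seven days before Alamar blue readout; 0% = bacteria only wells and 100% = bacteria with antibiotic wells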
# Arbovirus inh – blocks arbovirus infection. 200,000 compounds, 0.37% hits. inhibition, % at 10 µM. arbovirus infection cell-based antiviral screen;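 active = inhibition from about 30%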;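 also: bluetongue infection of BSR cells; cell survival read as ATP light after 72 h; 0% = infected wells without compound and 100% = uninfected wells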
# Mtb bLac sens – beta-lactam sensitization of Mtb H37Rv; M. tuberculosis H37Rv growth with meropenem, percent inhibition; hits of this screen are not shown here; AID 434955; 330,000 compounds, 0.27% hits; inhibition, % at 25 µM;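 active = about 74% or more and at least 40 points above the plate without the antibiotic, then above 30% in a dose series; inconclusive = first-round hits that could not be retested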;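 also: growth measured after seven days incubation then overnight dye step; 0% = bacteria only wells and 100% = bacteria with antibiotic; twin plates without the antibiotic show which effects depend on it; some results filed as inactive read as strong as hits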
# Arbovirus inh repeat – further read-out of Arbovirus inh, marked with its call; inhibition, %; measured here: 10K subset replicate screen; many hits read low in the repeat;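 first of two repeat runs on a subset; 0% = infected and 100% = uninfected wells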
# Starred values were filed as active, the others as inactive; u = inconclusive; x = no result given.
SMILES,RecA intein inh,YopH inh,Mtb H37Rv,Arbovirus inh,Mtb bLac sens,others
COC(=O)c1cc(=O)n(Cc2ccc(OC)c(OC)c2)c(=Nc2ccc(F)cc2)s1,-1.4,-45,70%,-40,4,
O=C(NC1CC1)C1CCN(C2CCN(C(=O)Cc3ccc(F)cc3)CC2)CC1,0.5,x,3%,10,-8,
CCOC(=O)C1(Cc2ccc(OC)cc2)CCN(C(=O)C2CC(=O)N(C3CC3)C2)CC1 (stereo not given),-3.3,x,-3%,x,-6,
CS(=O)(=O)c1ccc2nc(NC(=O)CN3CCOCC3)sc2c1,1.2,x,x,x,1,
CCC(=O)N1CC(=O)Nc2ccc(F)cc2C1c1ccccc1 (stereo not given),0.0,-52,1%,5,0,Arbovirus inh repeat=-1
CCOc1ncccc1C(=O)N1CCN(C(=O)c2ccccc2)CC1,3.4,x,-7%,4,3,
CSc1ccc(C(=O)C2CCCN(C(=O)c3csc(C(C)=O)c3)C2)cc1 (stereo not given),-1.2,x,1%,2,-2,
Cc1c(NC(=O)CN(c2ccccc2)S(=O)(=O)c2ccc(F)cc2)c(=O)n(-c2ccccc2)n1C,-0.3,x,x,x,-12,
O=C(CCN1C(=O)c2ccccc2C1=O)NC(=S)Nc1ccccc1Cl,-2.0,-23,9%,5,-4,
COc1ccc(CC2SC(N)=NC2=O)cc1 (stereo not given),-2.4,x,x,x,-3,
CCOC(=O)c1cnc2cc(F)c(F)cc2c1N1CCOCC1,-1.3,x,x,x,-7,
O=C(CCn1[nH]c(=O)c2ccccc2c1=O)N1CCOCC1,0.5,6,-2%,8,-12,
CCOC(=O)NN1C(=O)c2ccccc2NC1c1cccc(O)c1 (stereo not given),-10,-15,2%,3,0,
CCOC(=O)N1CCC(N(C(=O)Nc2cccc(OC)c2)C(C)CC)CC1 (stereo not given),1.0,-32,1%,0,10,
Cc1ccc(-c2nnn(CC(=O)N(CC(=O)NC(C)C)c3cnc4ccccc4c3)n2)o1,1.4,0,-10%,4,-2,
Cc1nc2c([nH]c3ccccc32)c(=O)n1N,1.1,x,-2%,22,-3,
CCOc1ccc(-c2cn(-c3ccc(OC)cc3)c(SC)n2)cc1,8.3,-31,7%,20,97,
Cc1cccc(C)c1NC(=S)N1CCOCC1,-2.0,x,-11%,x,-7,
O=c1cc(-c2cccnc2)oc2c1ccc1ccccc12,0.6,x,69%,x,94,
Cc1ccccc1-n1c(N)cc(=O)[nH]c1=S,1.3,-16,1%,-4,2,
COc1ccccc1CNC(=O)C(CC(C)C)NS(=O)(=O)c1ccc2c(c1)oc(=O)n2C (stereo not given),2.2,-28,2%,1,-2,
CCc1ccc(OCC(=O)Nc2ccc(S(=O)(=O)Nc3ccccn3)cc2)cc1,-0.3,x,x,x,1,
COc1ccc(S(=O)(=O)CCC(=O)Nc2cc(C)ccc2OC)cc1,1.2,x,2%,-1,6,
CCN1/C(=C(\O)c2ccccc2)C(=O)c2ccccc2S1(=O)=O,8.0,-3,-10%,3,32,
COc1c(C)cc(C(=O)C2CCCN(Cc3ccc(Oc4ncccn4)cc3)C2)cc1C (stereo not given),1.5,x,3%,4,7,
SMILES,RecA intein inh,YopH inh,Mtb H37Rv,Arbovirus inh,Mtb bLac sens,others
O=C(CNS(=O)(=O)c1ccc(Br)s1)N1CCN(c2ccc(F)cc2)CC1,2.9,x,x,x,1,
Cc1ccc2nc(-c3cccc(S(=O)(=O)N4CC(C)OC(C)C4)c3)cn2c1 (stereo not given),2.4,x,x,x,3,
CC1CC(C)CN(C(=O)c2cc3c(=O)n4ccccc4nc3s2)C1 (stereo not given),-27,x,x,x,7,
CCc1ccccc1NC(=O)CCNS(=O)(=O)c1cc(Br)cnc1N,-3.9,x,x,x,-3,
Cc1cc(C)cc(NC(=O)N2CCC(NC(=O)c3ccc(F)cc3)CC2)c1,-0.7,-26,-1%,-3,u,
CC(=O)Nc1ccc(NC(=O)C2CCCN(C(=O)c3ccc(Cl)cc3)C2)cc1 (stereo not given),0.5,x,-6%,8,-10,
C/C(=N\N=C1\NC(=O)C(CC(=O)Nc2ccc(C)c(Cl)c2)S1)C(C)(C)C (stereo not given),-0.8,x,8%,5,3,
C=CCOC(=O)C1=C[C@H](c2ccc(Br)cc2)[C@@H](CCCO)[C@H](OCC)O1,4.3,x,-3%,13,23,
CC(C)NC(=S)N/N=C/c1cccnc1,0.3,x,4%,x,-7,
O=C1c2ccccc2S(=O)(=O)N1CCOc1ccccc1,x,-30,1%,2,-21,
CCOc1ccccc1NC(=O)CN1CCC(NC(=O)c2ccccc2)CC1,-3.6,-13,-5%,15,-6,
Cc1cc(C(=O)CSc2ccc3c(c2)OCCO3)c(C)n1C1CC1,2.9,-4,5%,6,8,
CC1CCN(S(=O)(=O)c2cccc(C(=O)NCc3cccs3)c2)CC1,2.4,4,-2%,16,3,
O=C(O)c1ccccc1SCc1cn2cc(Br)ccc2n1,-2.4,x,-2%,2,-7,
Cc1cccc(NC(=S)NN(Cc2ccccc2)c2ccccc2)c1C,-2.0,-10,6%,-4,-8,
Cc1ccc(C(=O)N2CCN(c3ccc(C(F)(F)F)cn3)CC2)cc1,0.0,-60,-16%,8,0,
CC(C)(C)C(=O)C(Oc1cccc2nonc12)n1cncn1 (stereo not given),3.3,-23,0%,0,-1,
CCCc1cc(C(=O)NNC(=S)NCC2CCCO2)cs1 (stereo not given),-1.2,-19,3%,0,-5,
N#Cc1c2n(c3c(=O)n(CC(=O)c4ccc([N+](=O)[O-])cc4)cnc13)CCCCC2,1.7,-23,-11%,6,4,
COC(=O)c1sc(-c2ccccc2)cc1NC(=O)c1ccccc1,-0.3,-31,-3%,-3,5,
COc1ccc(OCC(=O)N2CCN(C(=O)Cc3ccccc3)CC2)cc1,-2.4,5,-6%,2,1,
O=C(Nc1ncc([N+](=O)[O-])s1)C1CCN(S(=O)(=O)c2cnc[nH]2)CC1,15,14,-12%,7,-6,
NS(=O)(=O)c1ccc(CCNC(=O)c2ccc3c(c2)OCCO3)cc1,0.3,x,13%,0,0,
CCn1c(-c2ccc(F)cc2)cnc1SCC(=O)N1CCCCC1C (stereo not given),x,-23,-5%,0,x,
COc1ccc(NC(=O)NCc2ccc3c(c2)OCO3)c(OC)c1,-2.4,x,x,x,-6,
SMILES,RecA intein inh,YopH inh,Mtb H37Rv,Arbovirus inh,Mtb bLac sens,others
COC(=O)c1sccc1NC(=S)Nc1ccc(OC)cc1,-1.2,x,-1%,11,-8,
Cc1cc(NC(=O)c2ccc(F)cc2)n(C)n1,0.6,x,x,x,-3,
COc1cccc2c1OC1(C)CC2NC(=O)N1c1cccc(C(=O)Nc2ccc3c(c2)OCCO3)c1 (stereo not given),-0.6,-16,0%,-4,19,
CN1CCN(c2ccc([N+](=O)[O-])c(NCC3CCCO3)c2)CC1 (stereo not given),1.2,-20,-8%,5,2,
Cc1ccc(S(=O)(=O)NC(=O)NCc2ccc(F)cc2)cc1,0.3,x,-5%,2,0,
CC(C)COP(=O)(OCC(C)C)C(O)c1ccc(F)cc1 (stereo not given),-1.9,3,-1%,4,4,
CCOC(=O)c1oc2cc(OCC(=O)OC)ccc2c(=O)c1-c1ccc(OC)c(OC)c1,-0.1,x,x,x,99,
CCOc1ccc(NS(=O)(=O)c2ccc(C(=O)N(CC)CC(=O)NCc3cccs3)cc2)cc1,-2.7,x,x,x,-23,
CCCCNc1ncnc2c1cnn2-c1ccccc1,-0.4,-48,6%,-12,50,Arbovirus inh repeat=-13
CCOC(=O)c1c(C)[nH]c(C(=O)N2CCc3cc(OC)c(OC)cc3C2)c1C,-2.7,x,x,x,-15,
O=C(NCC1CCCO1)C(=O)N/N=C/c1ccccc1C(=O)O (stereo not given),-1.3,x,2%,1,-6,
CN(C)S(=O)(=O)c1cccc(C(=O)NCC(C)(C)CNC(=O)c2cccc(S(=O)(=O)N(C)C)c2)c1,-0.3,x,x,x,-2,
C=C1[C@@H](OC(C)=O)CC[C@]2(C)[C@@H]1C[C@@H]1C[C@H](OC(C)=O)C(C)=C([C@@H](OC(C)=O)[C@@H]2OC(C)=O)C1(C)C,13,x,2%,x,-1,
COC(=O)C1=C(C)N(C)C(=O)NC1c1ccccc1 (stereo not given),0.1,-16,-6%,-8,-1,
CCn1c(CNC(=O)COc2c(C)cccc2C)nnc1SCC(=O)Nc1nccs1,-1.0,-10,-3%,0,-15,
CCN(CCn1cccn1)Cc1cn[nH]c1-c1ccc(OC)cc1F,1.2,x,3%,6,2,
O=C1NC(=S)NC(=O)C1=Cc1cccn1-c1ccc(O)cc1,2.9,x,-6%,-14,x,
CCN(CC)CCCNC(=O)CSc1c2c(nc3cc(Cl)ccc13)CCCC2,29,x,1%,-27,-9,
COc1ccc(C(=O)NC(C)c2csc(C)n2)cc1OC1CCN(C(C)=O)CC1 (stereo not given),-0.5,x,x,x,3,
Cc1cc(C)c(C)c(OCCCN(C)C)c1,-3.9,-12,-2%,-12,3,
COc1c(C=C2C(=O)NC(=O)NC2=O)c(CCN(C)C(=O)c2ccccc2)cc2c1OCO2,-1.6,x,x,x,3,
Cc1cc(NC(=O)CCCN2C(=O)c3cccc4cccc(c34)C2=O)no1,-1.1,x,1%,-14,-2,
CC(C)N1C(=O)C(Cc2nc3ccccc3c(=O)n2-c2ccccc2)c2ccccc21 (stereo not given),10.0,-12,-2%,-5,0,
O=C(N/N=C/CCc1ccccc1)C1CCCCC1,-0.2,-41,-8%,-2,1,
COC(=O)CC1C(=O)NCCN1C(=S)Nc1cccc(C(F)(F)F)c1 (stereo not given),x,x,0%,9,1,
SMILES,RecA intein inh,YopH inh,Mtb H37Rv,Arbovirus inh,Mtb bLac sens,others
FC(F)(F)c1ccc(N2CCN(c3ncnc4c3nnn4Cc3ccccc3)CC2)nc1,-0.3,-35,2%,5,3,
O=C(Nc1csc([N+](=O)[O-])c1)Nc1ccccc1Cl,2.1,x,77%,x,71,
N#Cc1ccccc1S(=O)c1ccccc1C(=O)Nc1ccccc1 (stereo not given),1.0,x,5%,1,1,
COc1cc(C(=O)NCC(=O)NC(C)CCc2ccccc2)cc(OC)c1OC (stereo not given),7.8,x,x,x,-3,
COCCOC1CCN(C(=O)C2CCC(=O)N(CCc3ccccc3)C2)CC1 (stereo not given),5.7,x,x,x,3,
S=c1[nH]nc(-c2ccc(Cl)cc2)n1/N=C/c1ccco1,x,x,-7%,x,-2,
Cc1ccc(C(=O)/C=C/c2ccccc2[N+](=O)[O-])cc1,15,x,4.2µM*,-28,98,
COc1ccc(OCCOC(=O)c2[nH]c(C)c(C(C)=O)c2C)cc1,0.6,x,7%,14,7,
CC(CCc1ccccc1)NC(=O)c1ccc(NC(=O)c2ccccc2)cc1 (stereo not given),1.5,-22,3%,-2,-10,
O=C(Nc1ccc(-c2nc3ccccc3[nH]2)cc1)c1ccc2c(c1)OCO2,1.3,-24,-6%,-18,12,
COc1ccc(OCc2cc(-c3ccc(Cl)cc3)no2)cc1,-0.9,x,5%,-1,0,
CCOc1ccc(C(=O)Nc2c3c(nn2-c2cccc(C)c2C)CS(=O)C3)cc1 (stereo not given),1.5,-28,-4%,8,3,Arbovirus inh repeat=-1
O=C(CNc1n[nH]c(=O)[nH]c1=O)N/N=C/C1CC=CCC1 (stereo not given),-0.5,x,0%,x,-13,
CC(C)n1c(N2CCN(C(=O)c3cccs3)CC2)nc2ccccc21,x,-24,-3%,-2,4,

# Structures listed so far that have two or more sulfur atoms, in the order listed:
SMILES,RecA intein inh,YopH inh,Mtb H37Rv,Arbovirus inh,Mtb bLac sens,others
CS(=O)(=O)c1ccc2nc(NC(=O)CN3CCOCC3)sc2c1,1.2,x,x,x,1,
CSc1ccc(C(=O)C2CCCN(C(=O)c3csc(C(C)=O)c3)C2)cc1 (stereo not given),-1.2,x,1%,2,-2,
O=C(CNS(=O)(=O)c1ccc(Br)s1)N1CCN(c2ccc(F)cc2)CC1,2.9,x,x,x,1,
CC1CCN(S(=O)(=O)c2cccc(C(=O)NCc3cccs3)c2)CC1,2.4,4,-2%,16,3,
CCCc1cc(C(=O)NNC(=S)NCC2CCCO2)cs1 (stereo not given),-1.2,-19,3%,0,-5,
O=C(Nc1ncc([N+](=O)[O-])s1)C1CCN(S(=O)(=O)c2cnc[nH]2)CC1,15,14,-12%,7,-6,
COC(=O)c1sccc1NC(=S)Nc1ccc(OC)cc1,-1.2,x,-1%,11,-8,
CCOc1ccc(NS(=O)(=O)c2ccc(C(=O)N(CC)CC(=O)NCc3cccs3)cc2)cc1,-2.7,x,x,x,-23,
CN(C)S(=O)(=O)c1cccc(C(=O)NCC(C)(C)CNC(=O)c2cccc(S(=O)(=O)N(C)C)c2)c1,-0.3,x,x,x,-2,
CCn1c(CNC(=O)COc2c(C)cccc2C)nnc1SCC(=O)Nc1nccs1,-1.0,-10,-3%,0,-15,

# This is a subset; the hit share may differ from the screen's.
